Source: PubChem (several laboratories)
PABP FP inh = blocks human PABP binding to poly(A) RNA | fluorescence polarization | inhibition, % at 35 µM | 290,000 compounds, 1% hits | AID 2014;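 active = 50% or more with normal probe brightness, or confirmed in later tests; inconclusive = above 50% with abnormal brightness, or retests that disagree; inactive = below 50% or failed in later tests; about a fifth of its hits are not listed in these tables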;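 note: calls also rest on retests at 20 µM and on dose response follow-up; controls were probe without protein and protein plus probe with vehicle; some compounds called inactive have numbers as strong as hits; many hits fall short of the cut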
Target sequence (P11940 whole entry, looked up): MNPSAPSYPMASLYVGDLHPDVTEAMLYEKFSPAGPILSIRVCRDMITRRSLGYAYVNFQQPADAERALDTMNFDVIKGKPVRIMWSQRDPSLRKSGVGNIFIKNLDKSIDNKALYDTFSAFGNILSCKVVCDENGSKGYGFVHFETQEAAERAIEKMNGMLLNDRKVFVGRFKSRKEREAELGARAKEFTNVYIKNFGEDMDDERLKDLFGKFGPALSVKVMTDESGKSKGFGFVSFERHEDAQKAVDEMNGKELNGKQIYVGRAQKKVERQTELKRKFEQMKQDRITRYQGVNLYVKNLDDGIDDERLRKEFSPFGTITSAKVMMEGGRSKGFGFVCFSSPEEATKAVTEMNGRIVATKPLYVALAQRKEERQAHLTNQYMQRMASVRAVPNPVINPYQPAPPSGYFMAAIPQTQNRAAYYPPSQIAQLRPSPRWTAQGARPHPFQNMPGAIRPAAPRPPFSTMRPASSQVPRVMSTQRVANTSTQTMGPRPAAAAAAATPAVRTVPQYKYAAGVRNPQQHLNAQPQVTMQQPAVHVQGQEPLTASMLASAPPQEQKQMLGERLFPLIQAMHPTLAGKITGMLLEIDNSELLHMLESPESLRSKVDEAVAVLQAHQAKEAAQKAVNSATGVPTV
UUG fidelity = alters start codon recognition fidelity in yeast; AID 602363; activity score, % at 18.7 µM; S. cerevisiae UUG-firefly luciferase reporter, luminescence/redox ratio; 350,000 compounds, 0.13% hits;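 active = replicate mean at a twofold rise or more, about +100% in these data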;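 note: firefly luciferase made from a UUG start codon reports start codon fidelity; reporter light over untreated wells divided by growth signal over untreated wells; some hits fall short of that in this replicate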
MT1-MMP act inh = blocks activation of human MT1-MMP. P50281. HT1080 RFP-PRO-GFP cells, GFP/RFP ratio fluorescence, overnight; percent of plate control window, DMSO zero. GFP/RFP ratio change, % at 20 µM. 360,000 compounds, 0.061% hits. AID 651647;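 active = GFP/RFP ratio change of at least 30% with cell ATP level not reduced by more than half and red fluorescence within 50% of control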; note: strong numbers were not always called active
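Assay system: HT1080 RFP-PRO-GFP cells. Benchmarks: DMSO vehicle wells and RFP-L50D-GFP reporter cell wells. Times: overnight cell settling, then overnight compound exposure, 37 °C, 5% CO2. Compound: 20 µM single dose, 1% DMSO. Read-out basis: GFP/RFP fluorescence ratio.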
eIF4H FP inh = inhibitors of RNA binding by human eIF4H. Q15056. eIF4H fluorescence polarization binding assay. inhibition, % at 35 µM. 290,000 compounds, 0.94% hits;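 active = 50% or more with normal probe brightness, or confirmed in later tests; inconclusive = above 50% with abnormal brightness, or retests that disagree; inactive = below 50% or failed in later tests; about a fifth of its hits are not listed in these tables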;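 note: calls also rest on retests at 20 µM and on dose response follow-up; 0% = protein and probe with vehicle and 100% = probe without protein; strong numbers were not always called active; many hits fall short of the cut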
Rce1 inh = yeast Ras-converting enzyme inhibition; Q03530; yeast membranes, quenched prenylated peptide cleavage fluorescence; calls only; 290,000 compounds, 0.27% hits; AID 2563;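 active = fall in fluorescence gain of 50% or more versus controls, with final raw signal at or below 3038400; inconclusive = same 50% fall but final raw signal above 3038400; inactive = fall in fluorescence gain under 50%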;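 note: plate controls were neutral control wells for no effect and wells lacking membranes for full effect; tested at 10 µM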
Target sequence (Q03530 whole entry, looked up): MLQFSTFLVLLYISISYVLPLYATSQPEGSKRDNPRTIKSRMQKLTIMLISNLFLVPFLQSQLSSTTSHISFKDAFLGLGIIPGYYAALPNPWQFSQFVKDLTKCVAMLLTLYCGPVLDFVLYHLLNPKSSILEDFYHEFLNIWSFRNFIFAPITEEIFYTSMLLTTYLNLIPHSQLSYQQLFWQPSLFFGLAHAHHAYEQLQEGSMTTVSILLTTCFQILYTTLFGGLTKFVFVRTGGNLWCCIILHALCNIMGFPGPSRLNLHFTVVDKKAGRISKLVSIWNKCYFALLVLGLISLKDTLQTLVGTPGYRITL
Env fusion inh = HIV envelope-mediated fusion inhibition | 360,000 compounds, 1.1% hits | HeLa-JRFL Env/CEM21 cell fusion, luciferase | inhibition, % at 12.3 µM;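 active = mean replicate inhibition score of at least 50 and every replicate individually at or above 50; inconclusive = only one of the two criteria met; inactive = mean below 50 and not all replicates reaching 50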;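 note: 0% = plate neutral controls and 100% = maraviroc near 300 nM; one replicate is shown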
CSC inhib = cancer stem cell inhibition | inhibition, % at 7.5 µM | cancer stem cell-like cells viability, luminescence | 300,000 compounds, 1.1% hits;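 active = mean at 75% or more and at least half the replicates too; inconclusive = mean and replicates disagree; tested in HMLE shEcad cells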;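 note: 0% = median of negative and 100% = median of positive control wells; the first replicate is given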
MT1-MMP act inh RFP = further read-out of MT1-MMP act inh, marked with its call; RFP signal change, %; measured here: RFP expression control read;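 0 = vehicle wells; hits needed this value within 50% of zero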
* hit, by the source's call; & = joins results of further samples. The list is partial (hit frequency here may not be typical).

Screening C[C@@H]1O[C@@H](O[C@H]2C[C@@H](O)[C@]3(CO)[C@H]4[C@H](O)C[C@]5(C)[C@@H](C6=CC(=O)OC6)CC[C@]5(O)[C@@H]4CC[C@]3(O)C2)[C@H](O)[C@H](O)[C@H]1O returned PABP FP inh 6, UUG fidelity -25&1, MT1-MMP act inh -41, eIF4H FP inh 6, Rce1 inh inactive, CSC inhib 95* and MT1-MMP act inh RFP -39.
`Cc1cc(N2CCN(C)CC2)nc2ccccc12` gave PABP FP inh 9, UUG fidelity -18, MT1-MMP act inh -10, eIF4H FP inh 3, Rce1 inh inactive, Env fusion inh -9 and MT1-MMP act inh RFP -2.
`BrCC1C[n+]2c(SCc3ccccc3)nc3sc4c(c3c2O1)CCCC4` (stereo not drawn) gave PABP FP inh 4, UUG fidelity -22, MT1-MMP act inh 2, eIF4H FP inh -6, Rce1 inh inactive, Env fusion inh 10, CSC inhib -4 and MT1-MMP act inh RFP 0.
CC(C)(C)C(=O)N1Cc2cc(N3CCOCC3)ccc2-n2nncc2C1 was read as UUG fidelity -9, MT1-MMP act inh 5, Env fusion inh 4 and MT1-MMP act inh RFP 8.
`O=P(Nc1cccc(F)c1)(Oc1ccccc1F)Oc1ccccc1F` gave PABP FP inh -9, MT1-MMP act inh -1, eIF4H FP inh -4, Rce1 inh inactive, Env fusion inh 29, CSC inhib 4 and MT1-MMP act inh RFP -2.
CCOC(=O)c1cc(C)sc1/N=C/C1C(=O)NC(=S)NC1=O was read as PABP FP inh -2, UUG fidelity -15, MT1-MMP act inh -1, eIF4H FP inh -6, Rce1 inh inactive, Env fusion inh 8, CSC inhib 3 and MT1-MMP act inh RFP 7.
`COC(=O)C(C)Oc1cc(C)cc2oc(=O)c3c(c12)CCCC3` (stereo not drawn) gave PABP FP inh -10, UUG fidelity 6, MT1-MMP act inh 3, eIF4H FP inh -6, Rce1 inh inactive, CSC inhib 23 and MT1-MMP act inh RFP 3.
`O=P(NS(=O)(=O)c1ccc(Br)cc1)(Oc1ccccc1)Oc1ccccc1` gave PABP FP inh 11, UUG fidelity 7, MT1-MMP act inh -4, eIF4H FP inh 4, Rce1 inh inactive, CSC inhib 4 and MT1-MMP act inh RFP 0.
For CC(C)(C)c1ccc(O)c(N=Cc2c(O)ccc3ccccc23)c1 the results were PABP FP inh inconclusive, UUG fidelity -13, MT1-MMP act inh -2, eIF4H FP inh inconclusive, Rce1 inh inactive, Env fusion inh 24, CSC inhib 30 and MT1-MMP act inh RFP 7.
Screening CC(=O)N1CC(=O)Nc2ccc(Cl)cc2C1c1ccccc1 (stereo not drawn) returned PABP FP inh 6, UUG fidelity -6, MT1-MMP act inh -5, eIF4H FP inh -15, Rce1 inh inactive, Env fusion inh 9, CSC inhib 5 and MT1-MMP act inh RFP 1.
Screening O=C1CC(N2CC=C(c3ccccc3)CC2)C(=O)N1c1ccc(F)cc1 (stereo not drawn) returned PABP FP inh -8, UUG fidelity -2, MT1-MMP act inh -4, eIF4H FP inh 3, Rce1 inh inactive, Env fusion inh 1, CSC inhib 7 and MT1-MMP act inh RFP 2.
Screening CCN1CCN(S(=O)(=O)c2ccc(Cl)nc2)CC1 returned PABP FP inh -6, MT1-MMP act inh -9, eIF4H FP inh -2, Rce1 inh inactive, CSC inhib -8 and MT1-MMP act inh RFP -4.
CC1CCN(CC(=O)c2cccc(C(F)(F)F)c2)CC1 was read as PABP FP inh 14, UUG fidelity 4, MT1-MMP act inh 1, eIF4H FP inh 2, Rce1 inh inactive, Env fusion inh 27, CSC inhib 19 and MT1-MMP act inh RFP 2.
COC(=O)C1=C(c2cccc(C#N)c2)C[C@@H]2CC[C@H]1N2C(=O)NCCOc1ccc(OC)cc1 was read as UUG fidelity -6, MT1-MMP act inh 0, Env fusion inh -6, CSC inhib -10 and MT1-MMP act inh RFP 0.
`COC(=O)C1=C(c2ccc(Cl)c(C(F)(F)F)c2)C[C@@H]2CC[C@H]1N2C(=O)NC(C)C` gave UUG fidelity -14, MT1-MMP act inh 2, Env fusion inh 5, CSC inhib -5 and MT1-MMP act inh RFP -4.
`O=c1[nH]c(=O)n(Cc2ccccc2Cl)c(O)c1C=Nc1ccc(F)cc1` gave PABP FP inh 3, UUG fidelity -19, MT1-MMP act inh 1, eIF4H FP inh inconclusive, Rce1 inh inactive, Env fusion inh 1, CSC inhib 0 and MT1-MMP act inh RFP 0.
COc1ccc(OC)c([C@@H](O)[C@H](C)NC(C)(C)C)c1 was read as PABP FP inh -1, UUG fidelity -16, MT1-MMP act inh 1, eIF4H FP inh 2, Rce1 inh inactive, Env fusion inh 24, CSC inhib 2 and MT1-MMP act inh RFP 3.
Screening CC1CCC(C)(NS(=O)(=O)OCC(Cl)(Cl)Cl)CC1 (stereo not drawn) returned PABP FP inh 4, UUG fidelity -17, MT1-MMP act inh -1, eIF4H FP inh 2, Rce1 inh inactive, Env fusion inh 13, CSC inhib 28 and MT1-MMP act inh RFP -3.
For CCOC(=O)CNC(=O)N1Cc2ccc(Br)cc2-n2nncc2C1 the results were UUG fidelity -2, MT1-MMP act inh -2, Env fusion inh 11 and MT1-MMP act inh RFP 4.
ON1C2CCCCC2N(O)C1c1ccccc1 (stereo not drawn) was read as PABP FP inh -3, UUG fidelity 7, MT1-MMP act inh 5, eIF4H FP inh -15, Rce1 inh inactive, CSC inhib -17 and MT1-MMP act inh RFP 3.
`COc1cccc(C(=O)C2CCCN(Cc3ccc(F)cc3)C2)c1` (stereo not drawn) gave PABP FP inh 2, UUG fidelity -13, MT1-MMP act inh -6, eIF4H FP inh 1, Rce1 inh inactive, Env fusion inh -28, CSC inhib 13 and MT1-MMP act inh RFP -2.
CCOC(=O)c1ccc(N=C(c2ccccc2)c2c(O)n(C)c(=O)n(C)c2=O)cc1 was read as PABP FP inh inconclusive, UUG fidelity -5, MT1-MMP act inh -30, eIF4H FP inh inconclusive, Rce1 inh inactive, Env fusion inh -18, CSC inhib 1 and MT1-MMP act inh RFP 2.
`COc1cccc(C(=O)C2CCCN(Cc3ccc4nsnc4c3)C2)c1` (stereo not drawn) gave PABP FP inh -13, UUG fidelity -9, MT1-MMP act inh 0, eIF4H FP inh -5, Rce1 inh inactive, Env fusion inh 0, CSC inhib 6 and MT1-MMP act inh RFP 2.
`COP(=O)(C#Cc1ccccc1)C(O)c1ccc(Br)cc1` (stereo not drawn) gave PABP FP inh 7, MT1-MMP act inh -1, eIF4H FP inh 0, Rce1 inh inactive, Env fusion inh 9, CSC inhib -13 and MT1-MMP act inh RFP 3.
`CN1C(=O)c2ccccc2NC(=O)[C@]12O[C@@H]2c1ccccc1` gave PABP FP inh 14, UUG fidelity -18, MT1-MMP act inh 2, eIF4H FP inh 5, Rce1 inh active, CSC inhib -9 and MT1-MMP act inh RFP 3.
`O=c1[nH]c(=S)[nH]c(O)c1/C=N/N1CCOCC1` gave PABP FP inh -3, UUG fidelity -23, MT1-MMP act inh 2, eIF4H FP inh 9, Rce1 inh inactive, Env fusion inh -9, CSC inhib -7 and MT1-MMP act inh RFP 4.
For CCc1ccc(-c2nn(Cc3ccccc3)cc2C=O)cc1 the results were PABP FP inh inconclusive, UUG fidelity -8, MT1-MMP act inh -2, eIF4H FP inh 1, Rce1 inh inactive, Env fusion inh -40, CSC inhib -3 and MT1-MMP act inh RFP -10.
CN1C(=O)C(=Cc2ccccc2OCc2ccc(C(=O)O)cc2)C(=O)N(C)C1=O was read as PABP FP inh -4, UUG fidelity -12, MT1-MMP act inh 2, eIF4H FP inh 8, Rce1 inh inactive, Env fusion inh 10, CSC inhib -7 and MT1-MMP act inh RFP 4.
Screening CC1CN(O)C2CCc3nonc3C12O (stereo not drawn) returned PABP FP inh -11, UUG fidelity -8, MT1-MMP act inh 3, eIF4H FP inh 6, Rce1 inh inactive, CSC inhib 2 and MT1-MMP act inh RFP 5.
CC(=O)OC1C2CCCC1C(N1CCCC1)CC2 (stereo not drawn) was read as PABP FP inh -3&-6, UUG fidelity -13&-8, MT1-MMP act inh 0&4, eIF4H FP inh -2&-8, Rce1 inh inactive, CSC inhib -4&-7 and MT1-MMP act inh RFP 3&2.
For COc1ccc(OCC(=O)N2CCN(Cc3c[nH]c4ccccc34)CC2)cc1 the results were PABP FP inh 29, UUG fidelity -2, MT1-MMP act inh -2, eIF4H FP inh -8, Rce1 inh inactive and MT1-MMP act inh RFP -1.
CC(C)c1ccc(OCC(=O)N2CCN(C)CC2)c(Br)c1 was read as PABP FP inh -10, UUG fidelity -8, MT1-MMP act inh 17, eIF4H FP inh 1, Rce1 inh inactive, Env fusion inh 10, CSC inhib 4 and MT1-MMP act inh RFP -1.
Screening COC(=O)C(O)(c1c(C)[nH]c2ccccc12)C(F)(F)F (stereo not drawn) returned PABP FP inh 1, UUG fidelity -15, MT1-MMP act inh 1, eIF4H FP inh -2, CSC inhib -2 and MT1-MMP act inh RFP 3.
Screening O=C(N/N=C/c1c(O)n(Cc2ccc(F)cc2)c(=O)[nH]c1=O)c1ccccc1 returned PABP FP inh -5, UUG fidelity -7, MT1-MMP act inh 0, eIF4H FP inh 12, Env fusion inh -2, CSC inhib 1 and MT1-MMP act inh RFP 7.
`COc1ccc(CCn2c(O)c(C=NC3CC3)c(=O)[nH]c2=O)cc1OC` gave PABP FP inh -8, UUG fidelity -10, MT1-MMP act inh -1, eIF4H FP inh -6, Rce1 inh inactive, Env fusion inh -73, CSC inhib 7 and MT1-MMP act inh RFP -2.
For Cc1nc2ccccn2c1P(=S)(N1CCCCC1)N1CCCCC1 the results were PABP FP inh -4, UUG fidelity -23, MT1-MMP act inh -1, eIF4H FP inh -10, Rce1 inh inactive, Env fusion inh -92, CSC inhib -6 and MT1-MMP act inh RFP -7.
For CN1CCN(C(=O)OC2c3nccnc3C(=O)N2c2ccc(Cl)cn2)CC1 (stereo not drawn) the results were PABP FP inh -7, UUG fidelity 1, eIF4H FP inh -12, Rce1 inh inactive and CSC inhib 28.
Cc1cccc(C#N)c1 was read as UUG fidelity -12, MT1-MMP act inh -4, CSC inhib -8 and MT1-MMP act inh RFP 7.
`CCOc1ccc(-n2c(O)c(C=NCCN(CC)CC)c(=O)[nH]c2=O)cc1` gave PABP FP inh -14, UUG fidelity -18, MT1-MMP act inh -11, eIF4H FP inh -10, Rce1 inh inactive, Env fusion inh -7, CSC inhib 4 and MT1-MMP act inh RFP 3.
OC12Oc3ccccc3C=C1N1CCC2CC1 (stereo not drawn) was read as PABP FP inh 0, UUG fidelity 4, MT1-MMP act inh 1, eIF4H FP inh -8, Rce1 inh inactive, CSC inhib -21 and MT1-MMP act inh RFP 1.
For Cc1cccc(C)c1-n1nnnc1C(c1cc2ccccc2o1)N1CCC(n2c(=O)[nH]c3ccccc32)CC1 (stereo not drawn) the results were UUG fidelity 5, MT1-MMP act inh 3, Env fusion inh 36 and MT1-MMP act inh RFP -34.
`O=C(COc1ccccc1)N1CCN(Cc2c[nH]c3ccccc23)CC1` gave PABP FP inh 11, MT1-MMP act inh 4, eIF4H FP inh -8, Rce1 inh inactive, CSC inhib -8 and MT1-MMP act inh RFP 4.
For Cn1c(=O)cc(OCCCC(=O)N2CCC3(CC2)OCCO3)c2ccccc21 the results were PABP FP inh -1, UUG fidelity 2, MT1-MMP act inh 9, eIF4H FP inh 1, Rce1 inh inactive, Env fusion inh 1, CSC inhib -3 and MT1-MMP act inh RFP 9.
